Screening data from PubChem BioAssay.
ClpP mod = qHTS Assay for Activators of ClpP; Potency, µM (doses to about 57.5 µM), inactives show at the top dose activity change, negative = active; ATP-dependent Clp protease proteolytic subunit (Bacillus subtilis (strain 168)), P80244; hit rate 1.9% among 340,000; purified B. subtilis ClpP, FRET peptide cleavage, 20 min; active = well fitted falling curve with a large enough effect; inconclusive = small, poorly fitted or top-dose-only effect; inactive = no such curve, though single readings can be large or run the other way; note: potency is the fitted concentration of half-maximal effect; the source files actives as falling curves though it sought activators and does not explain the sign; nearly all actives have a fitted effect of over 65% in size; many hits overshoot -100%
Target sequence (P80244 whole entry, looked up): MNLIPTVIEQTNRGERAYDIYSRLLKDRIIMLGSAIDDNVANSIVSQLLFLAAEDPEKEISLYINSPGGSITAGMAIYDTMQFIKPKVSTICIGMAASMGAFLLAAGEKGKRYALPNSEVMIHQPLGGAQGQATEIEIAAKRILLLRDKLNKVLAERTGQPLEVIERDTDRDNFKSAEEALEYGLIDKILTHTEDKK
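ClpP 10 microg/mL final, pH 8 Tris/KCl buffer with BSA, glycerol, Tween-20; compound pinned in; FRET-FV substrate; RT 20 min; Ex320/Em430; ΔFRET vs ADEP 5.8 microM, DMSO, no enzyme.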
Menin MLL FP FL = qHTS Assay for Inhibitors Targeting the Menin-MLL Interaction in MLL Related Leukemias: Competition With Fluorescein Labeled MLL-derived Peptide; FP activity change, % at 61.4 µM; Fluorescence polarization, fluorescein-MLL peptide displacement from menin; AID 1766, 2009; 290,000 tested, under 10 active; inconclusive = falling polarisation curve, or a change in total fluorescence; inactive = total fluorescence flat and polarisation flat or rising; no compound was filed as active; the % refers to the polarisation; negative = inhibition;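 note: % of control where 0% means no effect; inhibitors lower the polarisation; unlabelled MLL peptide was the positive control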
Sfp PPTase inh = qHTS Assay for Inhibitors of Bacillus subtilis Sfp phosphopantetheinyl transferase (PPTase) | Biochemical Sfp PPTase activity, qHTS | hit rate 3.5% among 310,000 | Potency, µM, for the others: max response, negative = inhibition, usual class: inhibitors | 4'-phosphopantetheinyl transferase ffp (Bacillus subtilis), Q9F4F7; active = well fitted inhibition curve with a large enough effect; inconclusive = small, poorly fitted or top-dose-only effect, or another doubt; inactive = no such curve, though single readings can be large or run the other way;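 note: the enzyme is Sfp with the accession as filed and its product quenches rhodamine fluorescence; potency is the fitted concentration of half-maximal effect; 0% = enzyme reaction without inhibitor and -100% = no enzyme wells; top concentration of the series not given in the record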
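Fluorescence-quenching assay with 15 nM Sfp, 5 uM rhodamine-CoA and 12.5 uM BHQ-2-labelled ybbR peptide in pH 7.6 Hepes/MgCl2 buffer. Enzyme was pre-incubated with compound for 15 min at room temperature. Rate was taken from the 30-min fluorescence change (525/598 nm).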
TRPV1 potentiator = HTS Assay for Compounds that Act as Potentiators of the Vanilloid Receptor 1. TRPV1-expressing cells, Fluo-8 calcium influx, capsaicin EC20 potentiation; host cell line not named in the record; control for the full effect not named in the record. potentiation, % at 8.33 µM. hit rate 0.02% among 320,000. AID 540277, 2011; active means potentiation above 80%; inconclusive means 30% to 80%; inactive means below 30%; note: 0% is about no effect
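TRPV1-expressing cells were cultured overnight at 35.5C and loaded with Fluo-8 calcium dye for 40 to 90 min at room temperature. After a 10 s baseline, compound was added and calcium influx was read kinetically for 3 min (ex 480/em 520 nm).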
gsp antagonist = qHTS for Antagonists of gsp, the Etiologic Mutation Responsible for Fibrous Dysplasia/McCune-Albright Syndrome: qHTS; gsp-mutant cells, cAMP HTRF, 30 min; control for the full effect not named in the record; Potency, µM (titrated, usually from 76.9 µM), without a hit: at the top dose activity change, negative = inhibition, actives largely listed as inhibitors; hit rate 0.4% among 340,000; active = falling curve of any shape with a large fitted effect; inconclusive = falling curve, mostly with a smaller effect; inactive = flat or rising curve; cell line not stated here;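 note: intracellular cAMP measured with PDE inhibitor Ro 20-1724 present during compound exposure; potency is the fitted concentration of half-maximal effect; % is set by controls: 0 for no effect and ±100 for the full control effect; nearly all actives have a fitted effect of over 65% in size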
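G418-selected cells were plated in DMEM/10% FBS for 16-24 h at 37C, then treated with compounds plus the PDE inhibitor […] (300 uM solution added) for 30 min at 37C. Intracellular cAMP was measured by HTRF after 30 min lysis at room temperature.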
gsp ag = qHTS for Agonist of gsp, the Etiologic Mutation Responsible for Fibrous Dysplasia/McCune-Albright Syndrome: qHTS; gsp mutant cells, cAMP HTRF, 30 min; control for the full effect not named in the record; Potency, µM (series often up to 76.9 µM), inactives show at the top dose activation (cAMP increase), most hits filed as activators; hit rate 0.13% among 340,000; active = well fitted activation curve with a large enough effect; inconclusive = small, poorly fitted or top-dose-only effect, or another doubt; inactive = no such curve, though single readings can be large or run the other way; cell line not stated here;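 note: phosphodiesterase inhibitor Ro 20-1724 added with compounds to block cAMP breakdown; potency is the fitted concentration of half-maximal effect; nearly all actives have a fitted effect of over 60% in size; about a fifth of the inactives were tested at one dose only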
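Cells stably selected in G418 were plated at 2000/well, grown 16-24 hr, then given compounds in DMSO with the PDE inhibitor […] (300 uM solution added) for 30 min at 37C; cAMP was read by HTRF.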
D2 PAM = Beta-Arrestin HTS for Positive Allosteric Modulators of the Human D2 Dopamine Receptor: Potentiators; DiscoveRx D2 beta-arrestin cells, luminescence, 90 min; 100% = 57 uM dopamine signal; potentiation, % (test concentration not listed); hit rate 0.23% among 360,000; AID 624464, 2012; active = potentiation of 50% or more; inconclusive = 30% to 50%; inactive = 30% or less;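 note: compound concentration not given in the record; tested on top of an EC20 dose of dopamine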
Target sequence (P14416 whole entry, looked up): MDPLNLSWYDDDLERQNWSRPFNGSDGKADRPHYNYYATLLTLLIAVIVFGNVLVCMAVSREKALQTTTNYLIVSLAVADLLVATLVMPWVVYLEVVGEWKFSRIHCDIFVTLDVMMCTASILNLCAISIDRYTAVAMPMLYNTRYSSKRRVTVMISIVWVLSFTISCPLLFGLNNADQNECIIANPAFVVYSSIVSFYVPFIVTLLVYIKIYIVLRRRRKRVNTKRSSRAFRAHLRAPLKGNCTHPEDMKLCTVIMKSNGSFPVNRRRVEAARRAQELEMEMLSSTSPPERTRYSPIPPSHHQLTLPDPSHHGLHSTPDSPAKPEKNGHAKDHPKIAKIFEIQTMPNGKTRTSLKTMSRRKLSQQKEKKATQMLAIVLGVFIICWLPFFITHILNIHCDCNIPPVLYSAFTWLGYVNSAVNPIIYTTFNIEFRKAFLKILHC
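PathHunter beta-arrestin assay in DiscoveRx D2 cells. Compounds were added with an EC20 of dopamine (50 nM final) for 90 min at 37 deg C. Luminescence was read 1 h after detection reagent, with 57 uM dopamine as the EC100 control.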
Starred values were filed as active, the others as inactive; ? = inconclusive; . = not tested or not shown; & = joins results of further samples; [ ] = another dose, or the depositor's remark. Random draw from the library. About 5.1% of those tested had a hit in this group.

SMILES	ClpP mod	Menin MLL FP FL	Sfp PPTase inh	TRPV1 potentiator	gsp antagonist	gsp ag	D2 PAM
O=C(Cn1ncc2c1-c1ccccc1OC2)Nc1ccc(S(=O)(=O)N2CCCCC2)cc1	-9.1%	-3.0	25%	.	-11%	?	1
Cc1cccc(CS(=O)(=O)c2ncc(Cl)c(C(=O)Nc3nnc(C(C)C)s3)n2)c1	-0.8%	.	-29%	-10	20µM*	-1%[15.4 µM]	-11
O=C1CC(c2ccco2)Cc2nc(N3CCN(Cc4ccc5c(c4)OCO5)CC3)ncc21 (stereo not given)	9.2%	4.0	?	3	-16%	-11%	-13
Cc1ccnc(NC(=O)c2ccccc2[N+](=O)[O-])c1	-0.9%	5.2	22µM*	-4	5%	-8%	-10
C=CCn1c(O)c(N=NC(=O)c2cccnc2)c2cc(Br)ccc21	-0.2%	-1.2	-12%	-1	2%	-1%	-2
CCC(C)n1c(-c2cccs2)nc2nc3ccccc3nc21 (stereo not given)	?	3.3	4%	-8	-5%	7%	-17
CN(C)c1ccc(S(=O)(=O)NCC(=O)N2CCN(S(=O)(=O)c3cccc(F)c3)CC2)cc1[N+](=O)[O-]	?	.	.	.	-6%	-43%[inhibitor]	-18
Cc1cc(/C=C2\C(=N)N3N=C(c4ccco4)SC3=NC2=O)c(C)n1Cc1ccccc1	.	2.3	?	-5	-9%	4%[15.4 µM]	-5
COc1ccccc1CCC(=O)Oc1ccccc1C#N	-0.1%	.	6%	-10	18%	-4%	-7
C=CCOc1ccc(C2N3CC4(CC)CN2CC(CC)(C3)C4=O)cc1 (stereo not given)	0.6%	2.1	9%	0	7%	8%	1
COc1ccc(CCN(C)c2ccc(S(=O)(=O)N3CCCC3)cn2)cc1OC	.	3.5	6%	-12	-20%	1%[15.4 µM]	7
CC(C)OC(=O)c1ccc(NC(=S)NC(=O)c2cncc(Br)c2)cc1	.	-2.5	-4%	2	1%	26%	-1
CNC(=S)N(CCc1c(C)[nH]c2ccc(OC)cc12)Cc1cccnc1	.	1.9	9%	-11	.	-23%[15.4 µM]	-2
Oc1ccccc1C=Nc1ccccc1-c1nc2ccccc2[nH]1	28µM*	6.5	-5%	-1	-2%	8%[15.4 µM]	0
O=C(OCC(=O)c1c[nH]c2ccccc12)c1cccc(O)c1	1.5%	8.1	-2%	5	-4%	-12%	?
COCc1c(C#N)c(NCCc2ccccc2)nc(C)c1[N+](=O)[O-]	0.8%	0.9	11%	5	-26%	-53%[inhibitor]	-2
CCN1C(=O)[C@H]2[C@H]3CN=C(SCc4ccc(OC)cc4)N3[C@@](CC)(C(=O)OC)[C@H]2C1=O	-1.4%	.	.	.	7%	.	-7
CN(C)CC(NC(=O)c1cccc(S(=O)(=O)Nc2ccc3c(c2)OCO3)c1)c1ccccc1 (stereo not given)	0.7%	.	.	-8	-2%	-56%[inhibitor]	-2
CC1Cc2ccccc2N1C(=O)COC(=O)c1ccc([N+](=O)[O-])o1 (stereo not given)	0.6%	.	.	.	8%	-2%[15.4 µM]	58*
O=C(NCCc1ccc2c(c1)OCO2)C1CCN(S(=O)(=O)c2ccc(Cl)cc2)CC1	0.3%	2.6	6%	-8	-15%	15%	1
COc1ccccc1NC(=O)CCCc1nnc2n(C)c(=O)c3sccc3n12	-6.4%	-5.5	17%	-3	11%	13µM*	1
COCCCC1CCN(C(=O)C2CCC(=O)N(Cc3ccccc3F)C2)CC1 (stereo not given)	1.2%	.	16%	7	7%	?	-8
CCCN(CCC)Cc1c(C(=O)OCC)nnn1-c1nonc1N	-6.1%	3.2	25%	-7	-9%[15.4 µM]	3%	-17
Cc1ccc(-c2csc(NC(=O)CSc3nnc4c(n3)[nH]c3ccccc34)n2)cc1	-0.5%	5.8	4%	-1	-3%	11%	22
CCOc1ccc(-c2cn(CCC#N)cn2)cc1	-4.5%	4.8	11%	2	2%	?	-18

Next section.
SMILES	ClpP mod	Menin MLL FP FL	Sfp PPTase inh	TRPV1 potentiator	gsp antagonist	gsp ag	D2 PAM
Cc1nn(CC2CC2)c(=O)n1-c1ccc(C(C)C)cc1	.	3.4	3%	7	-6%	11%[15.4 µM]	4
COc1ccccc1C(=O)COC(=O)C1(C)CC1(Cl)Cl (stereo not given)	-0.2%	.	.	.	-12%	12%[15.4 µM]	-5
CCOC(=O)c1c2n(c3ccc(OC(C)=O)cc13)CCC2	-0.4%	0.4	-6%	?	-2%	3%	-6
O=Cc1c(-c2ccc(Cl)cc2)oc2ccc(O)cc12	.	.	.	.	-3%	-37%[inhibitor]	9
COc1ccc(NC(=O)c2nc(-n3nc(C)cc3C)ccc2Cl)cc1Cl	0.5%	9.6	-11%	16	-10%	-13%	-8
Cc1ccc(C)c(CSC2=NN3CCCC(=O)N=C3S2)c1	.	2.9	-1%	-21	-3%	5%	-3
Cc1ccccc1NC(=O)CN1CCN(C(=O)c2ccco2)CC1	0.2%	.	10%	8	14%	9%	4
COc1ccc2c(=O)c(N3C(=O)c4ccccc4C3=O)c(C)oc2c1	2.0%	-1.6	4%	3	-2%	-2%	-4
CSc1nnc2c(n1)OC(C1CC=C(C)CC1)Nc1ccccc1-2 (stereo not given)	.	2.0	-3%	?	.	.	.
Cc1ccccc1NS(=O)(=O)c1ccc2oc(=O)ccc2c1	0.8%	-5.3	20%	?	3%	?	-3
Cc1ccc(C(C)C)c(OCCSc2nc3ccccc3n2CC(=O)O)c1	-0.2%	1.5	-1%	?	-14%	-12%	-1
CC(CCc1ccccc1)NCc1ccncc1 (stereo not given)	1.9%	3.1	9%	-2	12%	1%	0
Cn1cc(Cl)c(C(=O)Nc2nc3ccc(Cl)cc3s2)n1	65%	2.4	-10%	0	14%	-5%	-16
Cc1nn(CC(=O)Nc2ccc3c(c2)nc(CCN2CCCCC2)n3C)c(=O)c2ccccc12	-14%	0.1	15%	7	-1%	-1%	-8
CCOc1ccc2c(c1)/C(=N/N1C(=O)c3ccccc3C1=O)C(=O)N2	.	-1.3	18%	-10	-9%	-24%[15.4 µM]	-6
Cn1c(SCC(=O)NC(C)(C)C)nnc1-c1cnccn1	-4.0%	1.2	17%	19	11%	1%	0
Cc1cc(N2CCN(C)CC2)nc2ccc(NC(=S)NCCN3CCc4ccccc4C3)cc12	-22%	-5.8	-4%	4	4%	6%	-20
COc1c(N2CCN(C(=S)NC3CC4CCC3C4)C(C)C2)c(F)cc2c(=O)c(C(=O)O)cn(C3CC3)c12 (stereo not given)	-13%	-0.2	6%	0	?	-56%[inhibitor]	-4
Cc1ccc(NC(=S)N2CCN(S(C)(=O)=O)CC2)cc1Cl	-1.2%	-3.4	17%	-7	10%	1%[15.4 µM]	-9
Cc1ccc(N(CC(=O)NC2CCCC2)C(=O)c2c(C)noc2C)cc1C	1.0%	-0.1	11%	22	-10%	-19%	-20
O=C(N/C=C/c1ccco1)NCc1ccccc1	.	?	-28%	5	5%	-24%[15.4 µM]	-2
Cc1nn(C(C)C)c(C)c1CN1CCC(C(=O)Nc2cccc(-c3cccc(F)c3)c2)CC1	0.8%	0.2	-17%	2	-1%	11%	-23
CCOC(=O)C1CCN(C(=O)c2ccc(CNS(=O)(=O)c3ccc(C)cc3)cc2)CC1	.	-2.3	11%	4	-7%	7%	-1
CCCCn1cnc2c(oc3ccccc32)c1=O	-1.7%	5.5	7%	-4	-6%	4%	-6
CCOC(=O)CC1CCCCN1C(=O)c1ccc2oc(CCc3ccccc3)nc2c1 (stereo not given)	0.8%	-6.3	5%	1	-7%	-26%	-9

Additional structures
SMILES	ClpP mod	Menin MLL FP FL	Sfp PPTase inh	TRPV1 potentiator	gsp antagonist	gsp ag	D2 PAM
Cc1ccc2nc(NCCc3ccccc3)c3nncn3c2c1	-19%&-7.1%	6.0	19%	-17	-1%	3%	-13
O=C(c1ccc(=O)[nH]n1)N1CCN(S(=O)(=O)c2cccc(F)c2)CC1	-2.5%	.	.	15	11%	?	-13
COC(=O)C(NC(=O)c1ccccc1)=C1C=C(C)OC(C)=C1	-3.0%	0.6	5%	6	-9%	?	-23
COc1ccc(-c2cc(C(=O)NC(C)C)no2)cc1	?	2.1	23%	-24	-4%	-3%	3
CCc1ccccc1NC(=O)Nc1cccn(Cc2ccc(F)cc2)c1=O	-22%	-0.7	8%	8	1%	1%	-14
O=c1[nH]c(=S)[nH]cc1Oc1ccc(Br)cc1Br	.	.	.	.	-7%	?	-14
CC(C)CN1CCN(Cc2cccc3ncccc23)CC1CCO (stereo not given)	-2.5%	-9.0	22%	-3	10%	7%[15.4 µM]	-31
COc1ccc(/C=N/NC(=O)c2ccc(COCC(F)(F)C(F)F)cc2)cc1	199%	0.6	-5%	-13	12%	-43%[inhibitor]	-7
c1cnc2c(OCc3cn4cccnc4n3)cccc2c1	-25%	0.9	-28%	?	7%	-13%	-6
O=C(c1ccco1)N(CCCN1CCOCC1)c1nc(-c2ccc(F)cc2)cs1	0.2%	3.1	?	-15	?	15%	-35
CCOc1cc(CNCCc2c[nH]c3ccccc23)cc(Cl)c1OCC(N)=O	0.2%	-1.4	-27%	-2	-4%	?	-23
Cc1cc(NN)nc(NS(=O)(=O)c2ccccc2)n1	.	-1.1	56µM*	-2	-11%	21%	5
CCOC(=O)c1cc(C#N)c(NCc2ccccc2)nc1C	32µM*	-0.4	19%	-8	11%	19%	-4
CCc1ccc(N(C)S(=O)(=O)c2ccc3[nH]cc(C(=O)NCCN4CCOCC4)c(=O)c3c2)cc1	-18%	5.7	3%	18	-10%	-16%	-12
CCOc1ccc(OCc2ccc(C(=O)Nc3cccnc3)cc2)cc1	1.9%	.	.	1	5%	?	2
